Mtb betalactam = beta-lactam sensitization of Mtb H37Rv; AID 434955; inhibition, % at 25 µM; 330,000 compounds, 0.27% hits; M. tuberculosis H37Rv growth with meropenem, percent inhibition; hits of this screen are not shown here;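 active means about 74% or more and at least 40 points above the plate without the antibiotic, then above 30% in a dose series; inconclusive means first-round hits that could not be retested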;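 further: growth measured after seven days incubation then overnight dye step; 0% = bacteria only wells and 100% = bacteria with antibiotic; twin plates without the antibiotic show which effects depend on it; some results filed as inactive read as strong as hits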
YopH inh = YopH (Yersinia) phosphatase inhibition; fluorescence Ex485/Em525; inhibition, %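 (about 10 µM by stock and volumes)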; 140,000 compounds, 0.16% hits; AID 898;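 active means inhibition of 50% or more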;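 further: controls were vehicle for no effect and minimum signal wells for full effect; inactives centre near -20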
RecA splice inh = blocks M. tuberculosis RecA intein splicing. P9WHJ3. inhibition, %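 (about 9 µM by stock and volumes)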. 290,000 compounds, 0.75% hits. cell-free RecA intein splicing, fluorescence; in the data active means inhibition above about 30%; inconclusive means no clear call, values can overlap the other calls;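 further: 0% = vehicle wells and 100% = reference inhibitor control wells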
Target sequence (P9WHJ3 whole entry, looked up, canonical isoform): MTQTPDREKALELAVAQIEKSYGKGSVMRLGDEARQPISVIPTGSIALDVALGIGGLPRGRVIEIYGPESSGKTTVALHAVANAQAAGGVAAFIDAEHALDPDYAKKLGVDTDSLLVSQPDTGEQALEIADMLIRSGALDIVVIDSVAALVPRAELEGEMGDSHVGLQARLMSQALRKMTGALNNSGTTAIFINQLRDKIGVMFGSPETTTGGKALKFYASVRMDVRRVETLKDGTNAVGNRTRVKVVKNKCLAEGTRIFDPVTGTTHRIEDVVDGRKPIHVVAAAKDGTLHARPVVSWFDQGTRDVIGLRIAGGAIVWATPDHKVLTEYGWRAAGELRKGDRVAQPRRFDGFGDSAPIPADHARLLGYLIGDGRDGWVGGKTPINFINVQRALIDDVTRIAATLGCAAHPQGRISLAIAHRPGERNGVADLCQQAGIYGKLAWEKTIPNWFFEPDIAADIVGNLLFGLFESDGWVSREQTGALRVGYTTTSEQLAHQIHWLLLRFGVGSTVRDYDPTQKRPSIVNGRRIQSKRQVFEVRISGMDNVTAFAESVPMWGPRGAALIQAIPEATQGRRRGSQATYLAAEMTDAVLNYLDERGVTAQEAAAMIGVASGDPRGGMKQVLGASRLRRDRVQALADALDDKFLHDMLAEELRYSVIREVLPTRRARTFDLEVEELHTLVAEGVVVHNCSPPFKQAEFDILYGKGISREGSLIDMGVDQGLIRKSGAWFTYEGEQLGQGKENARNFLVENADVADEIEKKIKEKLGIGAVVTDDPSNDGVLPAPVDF
Arbovirus inh = blocks arbovirus infection; arbovirus infection cell-based antiviral screen; inhibition, % at 10 µM; 200,000 compounds, 0.37% hits;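 active means inhibition from about 30%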;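 further: bluetongue infection of BSR cells; cell survival read as ATP light after 72 h; 0% = infected wells without compound and 100% = uninfected wells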
Mtb growth = M. tuberculosis H37Rv growth inhibitors, H37Rv strain (AID 1626). M. tuberculosis H37Rv growth inhibition; higher % means a stronger effect. one-dose inhibition, % at 10 µM; IC50 in µM for titrated hits. 220,000 compounds, 0.95% hits;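 active means confirmed in a dose series; inconclusive means inhibition above 80% but not taken into the dose series; inactive means below 80% or under 30% at every dose of the series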;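 further: bacteria incubated seven days before Alamar blue readout; 0% = bacteria only wells and 100% = bacteria with antibiotic wells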
Arbovirus inh repeat = recorded beside Arbovirus inh, whose call it bears; inhibition, %; measured here: 10K subset replicate screen; many hits read low in the repeat;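 first of two repeat runs on a subset; 0% = infected and 100% = uninfected wells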
The depositor's hits bear a star; u = inconclusive; x = no result given. These rows are one share of the data; rates above refer to the full screens.

SMILES | Mtb betalactam | YopH inh | RecA splice inh | Arbovirus inh | Mtb growth | others
Cc1cccc(-n2c(Cc3cc(=O)[nH]c(=O)[nH]3)nnc2SCC(=O)NCC2CCCO2)c1 (stereo unspecified) | 0 | -33 | x | -2 | 2% | Arbovirus inh repeat=3
CSc1cccc(NC(=O)CN(c2cc(C)ccc2C)S(C)(=O)=O)c1 | -14 | -31 | -0.2 | 5 | -2% | Arbovirus inh repeat=9
CSc1ccc(CN2CCCC(CNC(=O)c3ccc(F)cc3)C2)cc1 (stereo unspecified) | 7 | x | -2.7 | -10 | 3%
CC(=O)n1cc([C@H]2C=C(C(N)=O)O[C@@H](OCc3ccc(CO)cc3)C2)c2ccccc21 | -3 | x | -1.4 | x | 6%
Cc1ccc(S(=O)(=O)NC(=O)c2cccc(C)c2)cc1 | -2 | x | -1.0 | x | x
COc1ccc(NC(=O)c2cccc([N+](=O)[O-])c2)cc1 | 5 | x | 2.4 | -5 | -2%
COc1ccc(/C=C\C(=O)Oc2cccc(/C=N/NC(=O)Cc3ccc(OC)c(OC)c3)c2)cc1 | -7 | -20 | 1.4 | -2 | 3%
NC(=O)NC(=O)CSc1nc2cc([N+](=O)[O-])ccc2n1-c1cccc(C(F)(F)F)c1 | 6 | x | 0.5 | x | 1%
N#CC(C#N)=C1C=CC=CN1/C(=C\c1ccco1)C(=O)c1ccc(-c2ccccc2)cc1 | 4 | 6 | x | -32 | 12%
COc1ccc(C(=O)N/C(=C/c2cccs2)C(=O)NCCCn2ccnc2)cc1OC | -8 | -31 | -4.1 | 2 | -1%
Cc1ccc(OCCC(=O)OCC(=O)NC(=O)NC2CCCCC2)cc1 | 1 | x | 11 | x | x
Cc1ccc(NS(=O)(=O)c2ccc(C(=O)N3CCCN(C)CC3)cc2)cc1 | 0 | -37 | 2.2 | -1 | -5%
Cn1cc([N+](=O)[O-])c(C(=O)NCc2cc3ccccc3[nH]2)n1 | 0 | -28 | -15 | 11 | 1%
CC1(C)CNc2cc([N+](=O)[O-])ccc2S1 | -4 | x | 1.5 | 10 | -2%
CC(=O)N(CCC(c1ccco1)C(C)C)Cc1ccc(OC(C)C)cc1 (stereo unspecified) | -8 | x | 13 | x | -4%
CCC1=C2CC[C@H]3C(=O)N(C)C(=O)[C@H]3[C@H]2[C@@]2(Cc3ccccc3)C(=NCC(=O)OC)OC(=O)N2C1=O | -3 | x | -3.7 | x | 4%
CSc1nc(-c2ccccc2)nc(N)c1C(C)=O | 4 | -41 | 3.9 | -3 | x
COc1ccc2c(C)cc(Sc3nnnn3-c3ccccc3)nc2c1 | -3 | 1 | 0.7 | 31* | 5%
COCCCNC(=S)NNC(=S)Nc1cccc(Cl)c1 | -3 | x | -4.5 | x | -1%
COc1ccc(Oc2nc3c(c(=O)n(C)c(=O)n3C)n2Cc2cccc(OC)c2)cc1 | 3 | -34 | -0.5 | 3 | -13%
CC(=O)c1c(C)[nH]c(C(=O)CSc2nnc(-c3ccco3)o2)c1C | -3 | x | 2.9 | 24 | 5%
Cc1ccc(NC(=O)CSc2nnc(-c3cccnc3)s2)cc1 | 70 | -29 | -0.3 | 7 | 6%
COCCN(C(=O)COC(=O)c1ccccc1NCc1ccco1)c1c(N)n(Cc2ccccc2)c(=O)[nH]c1=O | -6 | x | -0.4 | x | x
O=C(NCCNC(=O)c1cc(F)cc(F)c1)c1cc(F)cc(F)c1 | -4 | x | -0.4 | x | x

The closing 2 entries of the part above come first, to join the parts.
SMILES | Mtb betalactam | YopH inh | RecA splice inh | Arbovirus inh | Mtb growth | others
COCCN(C(=O)COC(=O)c1ccccc1NCc1ccco1)c1c(N)n(Cc2ccccc2)c(=O)[nH]c1=O | -6 | x | -0.4 | x | x
O=C(NCCNC(=O)c1cc(F)cc(F)c1)c1cc(F)cc(F)c1 | -4 | x | -0.4 | x | x
COc1ccc(N2C(=O)/C(=C/c3cc(C)n(-c4ccc(C)cn4)c3C)C(=O)NC2=S)c(OC)c1 | 1 | x | 0.0 | 0 | 2%
CC(C)CCNC(=O)c1cc2c(s1)-c1ccccc1S(=O)(=O)C2 | 6 | x | -1.9 | x | -3%
O=C(C1CCCO1)N1CCN(c2ccccn2)CC1 (stereo unspecified) | 3 | x | 1.9 | 18 | -1%
Cc1ccc(NC(=O)N2CCCc3ccccc32)cc1C | 14 | x | 3.9 | x | x
COc1ccc(Br)cc1S(=O)(=O)N1CCCC1 | 7 | 3 | -2.7 | 1 | -10%
COc1ccccc1N(CC1CO1)S(=O)(=O)c1ccc(C)cc1 (stereo unspecified) | 1 | x | 9.8 | x | x
COc1ccc(CNC(=O)CCNS(=O)(=O)c2cc(Br)cnc2N)cc1 | -4 | x | -4.8 | x | x
CC(=O)c1c(C)[nH]c(C(=O)OCC(=O)Nc2cc(C)on2)c1C | -8 | -35 | 0.2 | -8 | 0%
COc1ccc(OC)c(Nc2nc(NCc3ccco3)nc(N)c2[N+](=O)[O-])c1 | 2 | x | -1.1 | x | x
CN(CCCNC(=O)Cn1c(=O)c2cccn2c2ccccc21)Cc1ccccc1 | 3 | x | -1.0 | x | x
CSc1sc(C(=O)N2CCCCC2)c(-c2cccs2)c1C#N | -1 | x | 1.2 | x | -4%
CCNc1ccc(S(N)(=O)=O)cc1[N+](=O)[O-] | -6 | -2 | 2.0 | 3 | -4%

Among those listed so far, these contain two or more sulfur atoms.
SMILES | Mtb betalactam | YopH inh | RecA splice inh | Arbovirus inh | Mtb growth | others
CSc1cccc(NC(=O)CN(c2cc(C)ccc2C)S(C)(=O)=O)c1 | -14 | -31 | -0.2 | 5 | -2% | Arbovirus inh repeat=9
COCCCNC(=S)NNC(=S)Nc1cccc(Cl)c1 | -3 | x | -4.5 | x | -1%
Cc1ccc(NC(=O)CSc2nnc(-c3cccnc3)s2)cc1 | 70 | -29 | -0.3 | 7 | 6%
CC(C)CCNC(=O)c1cc2c(s1)-c1ccccc1S(=O)(=O)C2 | 6 | x | -1.9 | x | -3%
CSc1sc(C(=O)N2CCCCC2)c(-c2cccs2)c1C#N | -1 | x | 1.2 | x | -4%

Next section
SMILES | Mtb betalactam | YopH inh | RecA splice inh | Arbovirus inh | Mtb growth | others
O=C(c1ccccc1)N1CCN(c2ccc(Cl)cc2)CC1 | -9 | -30 | 2.7 | -6 | 0%
Cn1c(=O)c(-c2ccccc2N)nc2ccccc21 | -4 | -16 | -2.3 | 6 | 3%
CC(=O)N(C)c1ccc(NC(=O)Nc2ccc(Cl)cc2)cc1 | -4 | x | 1.9 | x | x
Cn1nnnc1SC(C(=O)Nc1ccc(F)cc1)c1ccccc1 (stereo unspecified) | -14 | x | 0.5 | -2 | 0%
CCOC(=O)C1=C(N)OC2=C(C(=O)CC(C)(C)C2)C1c1cccnc1 (stereo unspecified) | 10 | -28 | 0.2 | 1 | 0%
O=C1C2C3C=CC(C4CC34)C2C(=O)N1/N=C/c1cccs1 (stereo unspecified) | -3 | -11 | -1.0 | -9 | 3%
CC1C/C(=C\c2cccnc2)C(=O)/C(=C/c2cccnc2)C1 (stereo unspecified) | 99 | -14 | x | -31 | u
CCC(C)C(NC(=O)OC(C)(C)C)C(=O)NC(C)C(N)=O (stereo unspecified) | -2 | x | -2.8 | -1 | 0%
CCOc1ccc(CCNC(=O)Cn2nc(C)c3c(C)n(-c4ccccc4)nc3c2=O)cc1OCC | 0 | x | 2.6 | x | x
O=C(c1cc(S(=O)(=O)N2CCCC2)c(Cl)cc1Cl)N1CCCC1 | 7 | x | -1.2 | x | x
O=C(N/N=C/c1ccc(OC(=O)c2ccco2)cc1)c1ccncc1 | 98 | x | 12 | x | x
Cc1cc(OCC(O)CN2CCOCC2)cc(C)c1Cl (stereo unspecified) | -1 | x | -1.5 | x | x
COCCNC(=O)NC(=O)COC(=O)c1cccn1C | -4 | x | -3.0 | 4 | -4%
Cc1nn(CCCC(=O)NCc2ccc(F)cc2)c(C)c1[N+](=O)[O-] | 0 | -27 | -0.8 | 9 | -11%
CC(CC(=O)N1CCN(S(=O)(=O)c2ccccc2)CC1)n1cncn1 (stereo unspecified) | -8 | x | 1.8 | x | x
CCC1(c2ccccc2)NC(=O)N(CC(=O)Nc2cc(S(=O)(=O)N3CCOCC3)ccc2OC(C)C)C1=O (stereo unspecified) | -7 | x | 1.8 | x | x
COc1cc(NC(=O)Cc2ccc(OC)c(S(=O)(=O)N3CCOCC3)c2)c(OC)cc1Cl | -9 | x | 3.0 | x | x
COc1ccc(NC(=O)c2ccc(OCc3c(C)noc3C)c(OC)c2)cn1 | -4 | x | -7.1 | 2 | -5%
O=C(Nc1ccccc1Cl)Nc1cccc2cccnc12 | 18 | x | 6.8 | x | x
COc1cc(OC)c(OC)cc1CNCCSc1nnnn1C | 10 | x | -3.3 | 7 | -1%
COC(=O)[C@H](Cc1ccccc1)NC(=O)[C@@]1(C)C[C@@H]1[C@@H](NC(=O)OCc1ccccc1)c1ccccc1 | 19 | -32 | 3.7 | 5 | 2%
CCS(=O)(=O)c1ccc2oc(Nc3ccccc3C)nc2c1 | 5 | 12 | 1.3 | -2 | -5%
COc1cccc(CC2(CO)CCN(CC3=CC[C@H]4C[C@@H]3C4(C)C)CC2)c1 | 56 | x | 2.5 | 4 | -2%
O=C(CSc1n[nH]c(=O)n1-c1ccccc1)Nc1ccccc1C(F)(F)F | 5 | x | -3.1 | x | x
COc1cc([C@H]2c3[nH]c4ccccc4c3C[C@H]3C(=O)N4[C@@H](c5cc(OC)c(OC)c(OC)c5)c5[nH]c6ccccc6c5C[C@H]4C(=O)N23)cc(OC)c1OC | -17 | -8 | -2.2 | -24 | 9%
O=C(NNC(=O)C12CC3CC(CC(C3)C1)C2)[C@@H]1C[C@H]1c1ccccc1 | 5 | x | -6.5 | 7 | -8%
Cc1cc(NC(=O)CCC(=O)N(Cc2ccco2)C2(C(=O)NC3CCCCC3)CCN(C)CC2)no1 | -9 | -20 | 1.3 | 7 | 0%
O=C(COC(=O)c1ccc2c(c1)OCO2)NCc1ccc(Cl)cc1 | -1 | -15 | -2.0 | -10 | 4%
CCc1nc(SCc2ccc(F)cc2)[nH]c(=O)c1C#N | -5 | -19 | x | 40* | 0%
O=C(NCCc1ccc(O)c(O)c1)C1COc2ccccc2O1 (stereo unspecified) | -4 | x | -25 | x | x
O=C(NCCO)/C(=C/c1cccc([N+](=O)[O-])c1)NC(=O)c1ccco1 | 0 | x | -1.4 | 5 | -1%
Cc1ccc(CN2CCN(Cc3cccn3-c3ccc(Cl)cn3)CC2CCO)o1 (stereo unspecified) | -13 | x | 4.7 | 3 | 1%
O=C(O/N=C1/CCSc2ccccc21)c1ccccc1 | 91 | -29 | 2.0 | 1 | -3%
Cc1c(Cl)cccc1N(CC(=O)NC1CCCCC1)S(C)(=O)=O | 0 | -27 | 2.1 | 0 | 2%
CC(=O)c1ccc(NC(=O)CCNC(=O)c2ccccc2Cl)cc1 | 3 | x | -1.8 | x | x
CCn1c2ccccc2c2nnc(SCC(=O)N3CC(C)OC(C)C3)nc21 (stereo unspecified) | -1 | 7 | 5.1 | -3 | -7%
CC(=O)n1nc(-c2ccco2)nc1N | 4 | -62 | 0.8 | 8 | -3%
COC(=O)c1ccc2nc(C)c(C)nc2c1 | -7 | -36 | 0.3 | -1 | -6%
O=C(CNS(=O)(=O)c1cccs1)N1CCN(c2ccccn2)CC1 | 1 | -25 | -1.4 | 2 | -5%
COc1ccccc1C(=O)Nc1ccnn1C1CCN(Cc2ncc[nH]2)CC1 | 2 | x | 2.0 | x | x
CCOC(=O)CN1C(=O)/C(=C/c2ccc(Cl)cc2)Oc2ccccc21 | 76 | x | 0.4 | x | x
COC(=O)C1=[N+]([O-])OC(C(=O)OC)C1c1c[nH]c2ccccc12 (stereo unspecified) | 7 | -26 | 8.2 | 13 | -14%
CCOc1ccc(-c2ccc(SCC(=O)Nc3nnc(CC)s3)nn2)cc1 | -3 | x | -0.3 | -2 | 1%
CCCCC(=O)NN(C)c1nc(-c2ccccc2)nnc1C(F)(F)F | -6 | -15 | -3.9 | 5 | -8%
Cc1c(Cl)cccc1NC(=S)NCc1ccc(Cl)cc1 | -6 | -38 | -0.9 | x | 25%
Cc1ccc(-c2nn(C)c(=O)c3ccccc23)cc1S(=O)(=O)NCCO | 8 | 20 | -10 | 3 | -7%
CC(=O)NS(=O)(=O)c1cccnc1Nc1ccc(Cl)c(Cl)c1 | 6 | -25 | -2.3 | 22 | -9%
Cc1noc(C)c1S(=O)(=O)Nc1ccc(C(=O)NCc2ccccc2)cc1 | -3 | -40 | 2.6 | -3 | -7%
Cc1cccc(NC(=O)c2ccc(S(=O)(=O)N3CCCCC3C)cc2)n1 (stereo unspecified) | u | x | -3.1 | x | x
COc1ccccc1-c1cnn2c(NC3CCCC3)cc(C)nc12 | 13 | x | -1.2 | x | x
COC(=O)C1C(=O)C2=C(CC1C)NC(C)=C(C(=O)OC1CCCC1)C2c1ccc(N(C)C)cc1 (stereo unspecified) | 10 | -36 | -2.6 | 0 | -6%
